Screening data as filed in PubChem.
StopGo reporter = lowers the luciferase signal of an FMDV 2A StopGo reporter; human cells with a luciferase reporter of 2A StopGo recoding; control for the full effect not named in the record; Potency, µM (doses to about 57.9 µM), for inactives: top-dose signal change, negative = less light; 410,000 compounds, 1.2% hits; AID 1159524; active = well fitted falling curve with a large enough effect; inconclusive = small, poorly fitted or top-dose-only effect; inactive = no such curve, though single readings can be large or run the other way; tested in HEK293T cells; also: % is scaled to controls: 0 for no effect and ±100 for the full control effect; nearly all actives have a fitted effect of over 45% in size; luciferase light after 4 h
SARS PLpro yeast = inhibitors of SARS-CoV papain-like protease in yeast | S. cerevisiae expressing SARS-CoV PLpro, growth rescue; control for the full effect not named in the record | Potency, µM (series often up to 32.9 µM), inactives show at the top dose activity, positive = growth rescue | 330,000 compounds, 0.19% hits | AID 485353; active means well fitted rising curve with a large enough effect; inconclusive means small, poorly fitted or top-dose-only effect; inactive means no such curve, though single readings can be large or run the other way; also: 0% is about no effect; nearly all actives have a fitted effect of over 55% in size; growth read by luminescence after 48 h
RE007 growth inh = less growth of the S. pombe RE007 Vpr strain; S. pombe RE007 Vpr strain, BacTiter-Glo ATP luminescence, 24 h; control for the full effect not named in the record; Potency, µM (top dose mostly 92.2 µM), for the others: at the top dose activity change, negative = less growth; 360,000 compounds, 0.21% hits; AID 651644; active = well fitted falling curve with a large enough effect; inconclusive = small, poorly fitted or top-dose-only effect; inactive = no such curve, though single readings can be large or run the other way;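 also: % is scaled to controls: 0 for no effect and ±100 for the full control effect; nearly all actives have a fitted effect of over 50% in size; the assay follows cell death caused by Vpr and the record does not say whether a fall means rescue or toxicity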
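Fission yeast RE007 carrying one integrated HIV-1 vpr copy, seeded at OD 0.01 in PMG+AL medium with 23 nL pinned compound. Grown 24 h at 30 degrees; viability read by BacTiter-Glo luminescence after 5 min.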
The depositor's hits bear a star; ? = inconclusive; [ ] = remark or other dose. Potency is read from the fitted curve at half-maximal effect. Some of the compounds tested; the hit share may differ from the screen's.

SMILES | StopGo reporter | SARS PLpro yeast | RE007 growth inh
COc1ccc(NC(=O)Nc2cccc3c2O[C@H](CN(C)S(=O)(=O)c2cn(C)cn2)[C@@H](C)CN([C@H](C)CO)C3=O)cc1 | 43%[activator] | 7% | -8%
Fc1ccccc1-n1cn[nH]c1=S | 64%[activator] | 0% | 15%
C[C@H](CO)N1C[C@H](C)[C@@H](CN(C)S(C)(=O)=O)Oc2c(NC(=O)C3CC3)cccc2C1=O | 10% | 0% | 4%
CCCNC(=O)c1ccc(N2CCC3(CC2)CC(c2cccc(Br)c2)=NO3)c(NC(=O)c2cccc(C)c2)c1 | -13% | 1% | 2%
CCN1C(=O)[C@H]2[C@@H](c3ccc(-c4ccc(OC)cc4)c(OC)c3)N3CCCC[C@@]3(C(=O)OC)[C@H]2C1=O | -21% | -2% | 2%
C[C@@H]1O[C@@H](OCCC(=O)O)[C@H](O)C[C@H]1O | -6% | 0% | -2%
COc1ccc(Nc2c(-c3ccco3)nc3ccc(C)cn23)cc1 | 35%[activator] | -6% | -2%
COc1cccc(NC(=O)COC(=O)CNC(=O)C2CCCCC2)c1 | 0% | 1% | 6%
O=C(COC(=O)c1n[nH]c2ccccc12)NCCc1ccc(Cl)cc1 | ? | -1% | -1%
O=C(Cn1[nH]c(=O)c2ccccc2c1=O)OCC(=O)c1ccc(F)c(F)c1 | 11% | 0% | -22%
CCN(CC)C(=O)c1nc[nH]c1C(=O)O[C@@H](C)c1ccccc1 | -7% | -1% | -13%
N#CCCN(C(=O)COC(=O)COc1ccccc1Cc1ccccc1)c1ccccc1 | 0% | 5% | 1%
CC(C(=O)Nc1cc(C(F)(F)F)ccc1N1CCOCC1)N1C(=O)C2CCCCC2C1=O (stereo not drawn) | -14% | 8% | -3%
CC(=O)c1cccc(NC(=O)C(C)OC(=O)c2ccc3ncsc3c2)c1 (stereo not drawn) | -23% | -1% | 0%
Oc1ccc(Cl)cc1CNCc1ccc(Cl)nc1 | -6% | 1% | -19%
CS(=O)(=O)c1ccc(N)c(SSc2cc(S(C)(=O)=O)ccc2N)c1 | 4% | 2% | 7%
COc1ccc(C(=O)OCC(=O)c2c[nH]c3ccccc23)c(OC)c1 | 17% | -3% | -14%
COc1ccccc1C(=O)Nc1ccc(OCC(=O)N2C(C)CCCC2C)cc1 (stereo not drawn) | 23% | -4% | 7%
C=CCn1c(CCCNC(=O)c2ccccc2OC)nc2ccccc21 | -18% | -3% | 19%
Cc1ccc(NC(=O)C(=O)NNC(=O)c2cccs2)cc1 | 0% | -2% | -15%
CN(C)C(=O)CCc1ccc2c3c([nH]c2c1)[C@]1(C)[C@@H](C(=O)N2CCOCC2)C[C@H](CC(=O)NCCc2ccccn2)C(=O)N1CC3 | 15% | 3% | -11%
Cc1cc(C(=O)N2CCN(S(=O)(=O)c3ccc(F)c(Cl)c3)CC2)c(C)o1 | -23% | -5% | -12%
NC(=O)c1ccsc1NC(=O)CN1C(=O)NC2(CCCCC2)C1=O | -16% | 3% | -11%
CCc1nnc(NC(=O)Cc2c[nH]c3ccccc23)s1 | -8% | 1% | 6%
COc1ccc(C2CC(c3cccc(Br)c3)=NN2c2ccc(S(N)(=O)=O)cc2)cc1 (stereo not drawn) | ? | 13% | 4%
Fc1ccc2cnc(-c3cccnc3)cc2c1 | 44%[activator] | 4% | -5%
CCc1ccc(S(=O)(=O)NCC2(N3CCOCC3)CCCCC2)cc1 | 18% | 6% | 5%
O=C(CCN1C(=O)CSc2ccccc21)Nc1cccc(C(F)(F)F)c1 | 0% | -6% | 0%
Cc1ccc(S(=O)(=O)N2CCCCC2)cc1C(=O)NCCN1CCOCC1 | -15% | 7% | -3%
CC(=O)N/C(=C\c1ccccc1)C(=O)OC(C)C(=O)Nc1ccccc1F (stereo not drawn) | -6% | 9% | -5%

Looked up above:
Result for NC(=O)c1ccsc1NC(=O)CN1C(=O)NC2(CCCCC2)C1=O in SARS PLpro yeast: 3%
Result for COc1ccc(C(=O)OCC(=O)c2c[nH]c3ccccc23)c(OC)c1 in RE007 growth inh: -14%

The list goes on:
SMILES | StopGo reporter | SARS PLpro yeast | RE007 growth inh
C=C(C)CN(CC)C(=O)CSc1nc(O)cc(=O)n1C1CCCC1 | -18% | 4% | 18%
Cc1ccc(CNC(=O)NCc2ccccc2)cc1 | 41%[activator] | 0% | 10%
CCN1C(=O)[C@H]2[C@@H](c3ccc(-c4ccccc4)cc3)N3CCCC[C@@]3(C(=O)OC)[C@H]2C1=O | ? | 8% | 1%
O=C(Cc1cccc([N+](=O)[O-])c1)Nc1ccc(C(=O)N2CCCCC2)cc1 | 1% | 3% | -1%
CC1CCC2(CC1)NC(=O)N(CC(=O)N1CCN(C(=O)c3cccs3)CC1)C2=O (stereo not drawn) | -11% | 4% | 5%
O=C(CN1C(=O)NC2(CCOc3ccccc32)C1=O)c1ccc(Cl)s1 (stereo not drawn) | -3% | -1% | -16%
CCc1sc(C(=O)N2CCc3cc(OC)c(OC)cc3C2CC(=O)O)cc1C (stereo not drawn) | 0% | 3% | 4%
O=C(c1cc(-c2ccccc2Cl)nc2ccccc12)N1CCN(c2ccccn2)CC1 | ? | 3% | 29%
COc1cccc(C(=O)N(C)CC(=O)Nc2cccc3ccccc23)c1 | 19% | 3% | 1%
CCN1CCN(c2ccc(NC(=O)c3cc(S(=O)(=O)N4CCCC4)ccc3Cl)cc2)CC1 | 1% | -3% | -3%
CCCC[C@@H]1C=C(C(=O)O)[C@H](c2ccc3c(c2)OCO3)N1S(=O)(=O)c1ccc(C)cc1 | -13% | -1% | -5%
COc1ccc(NC(=O)COC(=O)CCSc2ccccc2)cc1OC | -15% | 1% | -9%
OCC[C@H]1C[C@H](O)[C@@H](O)[C@@]2(OCc3ccccc32)O1 | -4% | 0% | 7%
O=C(COC(=O)CNC(=O)C1CCCCC1)NCc1ccccc1 | 3% | 1% | 0%
O=C(CN1C(=O)NC2(CCOc3ccccc32)C1=O)Nc1cccc([N+](=O)[O-])c1 (stereo not drawn) | -19% | 2% | -6%

In the list so far, these have an aryl thioether with sulfur outside any ring:
SMILES | StopGo reporter | SARS PLpro yeast | RE007 growth inh
C=C(C)CN(CC)C(=O)CSc1nc(O)cc(=O)n1C1CCCC1 | -18% | 4% | 18%
COc1ccc(NC(=O)COC(=O)CCSc2ccccc2)cc1OC | -15% | 1% | -9%

The list continues.
SMILES | StopGo reporter | SARS PLpro yeast | RE007 growth inh
CN(C)S(=O)(=O)c1ccc(C(=O)OCC(=O)Nc2ccc3c(c2)OCO3)cc1 | -13% | 1% | 8%
CN(C)NC(=O)C12CCC(C)(C(=O)O1)C2(C)C (stereo not drawn) | 2% | 8% | 10%
COc1ccc(O)c(/C=N/N=C2/C(=O)Nc3ccccc32)c1 | 39%[activator] | 2% | -14%
Cc1ccc(CNC(=O)Cn2cnc(C(=O)Nc3ccc(C)c(C)c3)n2)o1 | 26% | 4% | 8%
COc1cc(/C=C/C(=O)OCC(=O)N(C)Cc2ccccc2)cc(OC)c1OC | -21% | -6% | 2%
Cc1ccc(CC(CC(=O)Nc2cccc(C(F)(F)F)c2)C(=O)O)cc1 (stereo not drawn) | 52%[activator] | -1% | -22%
C#CCOCCOCCOCCNc1nc(N2CCN(C(=O)CCCCCCCCCCNC(=O)[C@H]([C@@H](C)CC)n3cc(CCCCN=C(N)N)nn3)CC2)nc(N2CCN(C(=O)CCCCCCCCCCNC(=O)[C@@H]([C@H](C)O)n3cc(C)nn3)CC2)n1 | ? | 3% | 12%
CC(=O)NN1C(=O)c2ccccc2NC1c1cccnc1 (stereo not drawn) | -12% | 2% | 15%
N[C@@H]1CC[C@@]2(O)[C@H]3Cc4ccc(O)c5c4[C@@]2(CCN3CC2CC2)C1O5 (stereo partly drawn) | -22% | 4% | 6%
Cc1cccc(N(Cc2ccccc2)C(=O)c2ccc(C)c(S(=O)(=O)N3CCOCC3)c2)c1 | 41%[activator] | -3% | 0%
C=C1[C@H]2CC[C@H]3[C@]4(C)C[C@H](O[C@@H]5OC(CO)[C@@H](OSOOO)[C@H](OS(=O)(=O)O)[C@H]5OC(=O)CC(C)C)C[C@@H](C(=O)O)[C@H]4CC[C@]3(C2)[C@H]1O (stereo partly drawn) | -16% | 9% | 0%
COc1ccc(CCNC(=O)CCNS(=O)(=O)c2cccc(Cl)c2)cc1OC | -7% | 0% | -3%
CC(NC(=O)COC(=O)c1cc(Cl)ccc1O)C1CC2CCC1C2 (stereo not drawn) | ? | -3% | -27%
CCCCN1C(=N)N([C@@H](C)CN2CCC[C@H]2CN2C(N)=NC[C@H]2C(C)C)C[C@H]1[C@H](C)CC | -20% | -1% | -15%
C=CCN1C(=O)/C(=C/c2ccsc2)SC1=S | 5% | -2% | 2%
O=C(c1ccc(=O)[nH]c1)N1CCN(S(=O)(=O)c2ccc3ccccc3c2)CC1 | -24% | -12% | 0%
CC1(C)CC(=O)C=C(c2ccc(F)nc2)C1 | 8% | 0% | 14%
O=C(COC(=O)c1nc(Cl)c(Cl)c(Cl)c1Cl)NCc1ccccc1 | ? | 7% | -5%
CC(NC(=O)COC(=O)CCC(=O)c1ccc(F)cc1)c1ccccc1 (stereo not drawn) | -19% | 1% | -3%
CCN(CC(=O)NCc1cccs1)S(=O)(=O)c1cccc(Br)c1 | 2% | 4% | -4%
C=CCC[C@@H](Cc1ccc(F)cc1)C(=O)OC[C@@H](Cc1ccccc1)NC(=O)[C@@H](CC=C)CC(=O)N[C@@H](CO)Cc1ccccc1 | -5% | 1% | 2%
Cc1ccc(/C=C/C(=O)OCC(=O)NC(=O)NCc2ccccc2)cc1 | 8% | 2% | -5%
CC1(C)CC(NC(=O)C2CCN(S(=O)(=O)c3cccc(C(F)(F)F)c3)CC2)CC(C)(C)N1 | 0% | -1% | -2%
O=C(COC(=O)C1CC1)Nc1ccc(Cl)cn1 | 11% | 3% | -10%
O=C1OC[C@H]2CCCN2C(=O)[C@@H](CC(=O)N(CCO)Cc2ccccc2)C/C=C\CC[C@H]1Cc1ccc(F)cc1 | -10% | 3% | 15%
Cc1onc(-c2ccccc2)c1C(=O)N(CC(C)C)c1c(N)n(CC(C)C)c(=O)[nH]c1=O | -14% | 0% | -6%
Cc1nc(NC(=O)COC(=O)C(C)NC(=O)c2ccccc2)c(Cl)cc1Cl (stereo not drawn) | -14% | 3% | 5%
COC(=O)C1=C(c2ccc(OC(F)(F)F)cc2)C[C@@H]2CC[C@H]1N2C(=O)NCc1ccc(F)cc1 | 0% | 0% | 1%

Entries listed so far containing a CF3 group (five):
SMILES | StopGo reporter | SARS PLpro yeast | RE007 growth inh
CC(C(=O)Nc1cc(C(F)(F)F)ccc1N1CCOCC1)N1C(=O)C2CCCCC2C1=O (stereo not drawn) | -14% | 8% | -3%
O=C(CCN1C(=O)CSc2ccccc21)Nc1cccc(C(F)(F)F)c1 | 0% | -6% | 0%
Cc1ccc(CC(CC(=O)Nc2cccc(C(F)(F)F)c2)C(=O)O)cc1 (stereo not drawn) | 52%[activator] | -1% | -22%
CC1(C)CC(NC(=O)C2CCN(S(=O)(=O)c3cccc(C(F)(F)F)c3)CC2)CC(C)(C)N1 | 0% | -1% | -2%
COC(=O)C1=C(c2ccc(OC(F)(F)F)cc2)C[C@@H]2CC[C@H]1N2C(=O)NCc1ccc(F)cc1 | 0% | 0% | 1%
